# Menin MLL FP FL: inhibitors of human menin-MLL interaction, wild-type MLL peptide. 290,000 tested, under 10 active. FP activity change, % at 61.4 µM. AID 1766. Fluorescence polarization, fluorescein-MLL peptide displacement from menin; inconclusive = falling polarisation curve, or a change in total fluorescence; inactive = total fluorescence flat and polarisation flat or rising; no compound was filed as active; the % refers to the polarisation; negative = inhibition;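 further: % of control where 0% means no effect; inhibitors lower the polarisation; unlabelled MLL peptide was the positive control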
# Sfp PPTase inh: inhibitors of Bacillus subtilis Sfp phosphopantetheinyl transferase; Biochemical Sfp PPTase activity, qHTS; Q9F4F7; actives 3.5% (n = 310,000); AID 1490; Potency, µM, for the others: max response, negative = inhibition, hits mostly inhibitors; active means well fitted inhibition curve with a large enough effect; inconclusive means small, poorly fitted or top-dose-only effect, or another doubt; inactive means no such curve, though single readings can be large or run the other way;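 further: the enzyme is Sfp with the accession as filed and its product quenches rhodamine fluorescence; potency means the concentration at half of the fitted maximal effect; 0% = enzyme reaction without inhibitor and -100% = no enzyme wells; top concentration of the series not given in the record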
#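 Buffer: 50 mM Hepes-Na pH 7.6, 10 mM MgCl2, 0.01% Nonidet P-40, 0.01% BSA. Enzyme 15 nM, pre-exposed to compound 15 min; substrates then added and fluorescence change tracked over 30 min.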
# ClpP mod: qHTS Assay for Activators of ClpP. ATP-dependent Clp protease proteolytic subunit (Bacillus subtilis (strain 168)), P80244. Potency, µM (highest dose often 57.5 µM), without a hit: at the top dose activity change, negative = active. purified B. subtilis ClpP, FRET peptide cleavage, 20 min. AID 651965, 2013. actives 1.9% (n = 340,000); active = well fitted falling curve with a large enough effect; inconclusive = small, poorly fitted or top-dose-only effect; inactive = no such curve, though single readings can be large or run the other way; further: potency means the concentration at half of the fitted maximal effect; the source files actives as falling curves though it sought activators and does not explain the sign; nearly all actives have a fitted effect of over 65% in size; many hits overshoot -100%
# Target sequence (P80244 whole entry, looked up): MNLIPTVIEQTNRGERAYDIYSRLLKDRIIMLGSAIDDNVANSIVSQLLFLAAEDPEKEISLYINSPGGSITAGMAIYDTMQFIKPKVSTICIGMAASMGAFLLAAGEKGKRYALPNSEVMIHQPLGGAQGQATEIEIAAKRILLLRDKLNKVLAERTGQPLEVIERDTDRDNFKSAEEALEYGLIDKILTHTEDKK
#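 ClpP 10 microg/mL final, pH 8 Tris/KCl buffer with BSA, glycerol, Tween-20; compound pinned in; FRET-FV substrate; RT 20 min; Ex320/Em430; ΔFRET vs ADEP 5.8 microM, DMSO, no enzyme.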
# TRPML1 ag: human mucolipin-1 channel agonism; Q9GZU1; TRPML1-expressing cells, Ca2+ dye fluorescence, FDSS; host cell line not named in the record; reference of the full effect not given here; activation, % (concentration not given with the values); actives 0.12% (n = 410,000); in the data active = activation above about 50%; inconclusive = about 30% to 50%; inactive = below about 30%; further: 0% is about no effect; the text of the record puts the active cut at 80%
#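 Calcium fluorescence on an FDSS kinetic reader gave the read-out. Tet-induced TRPML1-DL cells were plated overnight, dye-loaded (Ca8 with quencher, 45-90 min, room temperature, dark), then read 110 s after compound addition, and again 110 s after 4uM final 54-4 (EC80).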
# TRPML1 inh: human mucolipin-1 channel inhibition; AID 624415; activity change, negative = inhibition, % (no concentration beside the values); Q9GZU1; actives 0.02% (n = 390,000); TRPML1-inducible cells, Ca2+ dye fluorescence, FDSS; hits give low values; inhibition of EC80 agonist-evoked calcium signal; in the data active means activity change below about -50%; inconclusive means about -30% to -50%; inactive means above about -30%;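 further: stimulus is agonist 54-4 at its EC80 concentration; on the % scale 0 is the no-effect control and ±100 the full control effect; compound concentration not given in the record; the text of the record puts the active cut at -80%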
#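 Calcium fluorescence in TRPML1-DL cells induced overnight with Tet: a 110 s read after compound pin addition, then a 110 s antagonist read after challenge with 54-4 at 4 uM final (EC80).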
# TRPV1 PAM: human TRPV1 potentiation. Q8NER1. TRPV1-expressing cells, Fluo-8 calcium influx, capsaicin EC20 potentiation; host cell line not named in the record; control for the full effect not named in the record. potentiation, % at 8.33 µM. actives 0.02% (n = 320,000). AID 540277; active means potentiation above 80%; inconclusive means 30% to 80%; inactive means below 30%; further: 0% is about no effect
# Target sequence (Q8NER1 whole entry, looked up): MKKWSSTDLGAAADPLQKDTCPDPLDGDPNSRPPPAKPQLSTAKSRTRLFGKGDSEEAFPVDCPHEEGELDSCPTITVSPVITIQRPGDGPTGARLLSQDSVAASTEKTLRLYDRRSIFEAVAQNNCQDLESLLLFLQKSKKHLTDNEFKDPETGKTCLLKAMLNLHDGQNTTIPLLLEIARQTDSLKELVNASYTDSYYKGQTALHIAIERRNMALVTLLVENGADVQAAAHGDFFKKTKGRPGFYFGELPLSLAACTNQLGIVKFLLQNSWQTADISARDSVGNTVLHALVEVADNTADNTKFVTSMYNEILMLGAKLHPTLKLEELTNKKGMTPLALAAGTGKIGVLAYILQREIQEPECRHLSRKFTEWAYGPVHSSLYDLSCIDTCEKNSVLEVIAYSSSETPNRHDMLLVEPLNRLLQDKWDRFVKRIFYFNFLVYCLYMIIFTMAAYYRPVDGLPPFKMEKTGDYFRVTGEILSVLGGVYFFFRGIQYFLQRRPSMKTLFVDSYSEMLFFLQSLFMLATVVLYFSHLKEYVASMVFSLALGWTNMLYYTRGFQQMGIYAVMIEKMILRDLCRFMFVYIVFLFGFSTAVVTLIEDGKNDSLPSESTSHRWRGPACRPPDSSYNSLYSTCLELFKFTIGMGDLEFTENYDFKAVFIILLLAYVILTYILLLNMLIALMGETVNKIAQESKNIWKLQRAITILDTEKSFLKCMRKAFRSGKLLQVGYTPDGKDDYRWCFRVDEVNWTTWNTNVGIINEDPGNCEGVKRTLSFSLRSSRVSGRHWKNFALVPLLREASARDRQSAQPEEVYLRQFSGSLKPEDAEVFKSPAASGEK
#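 Fluo-8 calcium influx in TRPV1-expressing cells, kinetic read (ex 480/em 520 nm). Compound added and read 3 min for agonist activity, followed by capsaicin at EC20 final and 2 min further read for enhancement.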
# PINK1 modulator: changes PINK1 expression | PINK1 immunofluorescence, high-content cytometry, 24 h | Potency, µM (highest dose often 76.6 µM), for inactives: top-dose activation (PINK1 increase), most hits filed as activators | actives 0.2% (n = 410,000); active = well fitted activation curve with a large enough effect; inconclusive = small, poorly fitted or top-dose-only effect; inactive = flat fitted curve, though single readings scatter; cell line not stated here;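 further: potency means the concentration at half of the fitted maximal effect; % of control where 0% means no effect; nearly all actives have a fitted effect of over 65% in size; a mitochondrial uncoupler was the plate control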
#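 Compound titrations (5 concentrations, 24 h) on a stable cell line; DMSO and CCCP controls. Endpoint: fixed-cell PINK1 immunofluorescence with mitochondrial, cell and nuclear markers, scanned by microplate cytometer.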
# * hit, by the source's call; ? = inconclusive; / = not tested or not shown; [ ] = dose if it differs, or a comment.
# The line under a structure holds: Menin MLL FP FL | Sfp PPTase inh | ClpP mod | TRPML1 ag | TRPML1 inh | TRPV1 PAM | PINK1 modulator
O=C(CSc1ccc2ccccc2c1)NCCCN1CCCC1=O
  -2.8 | 11% | 0.3% | -1.0 | -8 | 0 | 3.8%
CC(=O)Nc1nc(N)n(-c2ccccc2)n1
  -1.5 | 12% | 0.2% | -0.2 | 0 | -11 | 4.8%
O=C(NCc1ccc(F)cc1)C1CCC(CNc2c(N3CCCCC3)c(=O)c2=O)CC1 (configuration not stated)
  2.3 | 6% | -1.1% | 0.3 | -3 | 10 | -1.2%
O=C(NCCC1=CCCCC1)C1CCN(C(=O)Cc2ccccc2)CC1
  0.4 | -8% | / | 0.5 | 6 | 7 | -0.7%
O=C(NNC1=C(C(=O)C(F)(F)F)CCC1)c1ccccc1O
  0.5 | 6% | -16% | -0.5 | 55 | -3 | ?
COc1ccccc1-c1cc(C(=O)Nc2c(C)n(C)n(-c3ccccc3)c2=O)no1
  0.9 | ? | -4.8% | 0.6 | 9 | -1 | ?
O=C(CSc1ncnc2c1nnn2Cc1ccc(F)cc1)NC1CCCCC1
  4.0 | 13% | 0.1% | -0.4 | 25 | -2 | 3.6%
Cc1ccc(C(=O)Nc2cc3cc(Cl)ccc3oc2=O)cc1
  / | / | 4.3% | -0.5 | -3 | / | 5.9%
O=C(N/N=C/c1ccc(O)c2ccccc12)c1cccnc1
  10 | 7% | / | 1.1 | -11 | 16 | 0.5%
Cc1ccc(C)c(-n2cc[nH]c2=S)c1
  7.0 | ? | -1.1% | -0.3 | 18 | 15 | 0.1%
O=Cc1cn(CC(=O)Nc2ccccc2)c2ccccc12
  -2.2 | 4% | -1.1% | -0.5 | 10 | -12 | 0.9%
COc1ccc(S(=O)(=O)N2CCOCC2)cc1NC(=O)COC(=O)C1CC2CCCC(C1)C2=O (configuration not stated)
  / | 3% | 0.0% | 0.6 | -1 | 6 | 0.4%
COC(=O)Nc1nc2ccc(-c3n[nH]c(=O)c4ccccc34)cc2[nH]1
  0.2 | ? | 0.2% | 0.8 | -18 | 9 | 15%
CC(Sc1nnc(NC2CCCCC2)s1)C(=O)N1CCOCC1 (configuration not stated)
  / | / | -2.3% | -0.7 | 22 | 1 | 0.5%
Clc1ccc2nc(CSc3nnc(-c4c[nH]c5ccccc45)o3)cn2c1
  / | / | -1.9% | 0.8 | -8 | / | 16%
O=C(N=C1SC2CS(=O)(=O)CC2N1Cc1ccc(Cl)cc1)C1CCCO1 (configuration not stated)
  0.2 | 17% | 0.1% | 0.4 | -7 | 11 | -0.1%
CCOC(=O)C1(C)CCCCCN1C(=O)c1csnn1 (configuration not stated)
  / | / | -2.2% | 0.4 | / | / | 0.0%
CC1(C)Cc2cccc(OC(=O)NC3CCCCC3)c2O1
  / | / | 0.3% | -0.9 | / | / | 0.3%
COc1cc(CNCc2ccccn2)ccc1OCc1ccc(Cl)c(Cl)c1
  -2.6 | -9% | -2.3% | 0.5 | 8 | 1 | 2.3%
O=C(NC1CCCC1)c1noc2c1CCCCC2
  -3.9 | -4% | 0.0% | 4.1 | 38 | -8 | -0.6%
CS(=O)(=O)N1CCN(C(=O)c2c(F)cccc2F)CC1
  1.9 | 12% | 2.0% | 0.2 | 4 | 11 | 5.5%[38.3 µM]
Cc1ccc(NC(=O)C2COc3ccccc3O2)cc1S(=O)(=O)N1CCOCC1 (configuration not stated)
  / | / | -0.1% | -0.6 | 10 | -20 | 1.7%
COc1ccc(C2NC(=O)NC(O)(C(F)(F)F)C2C(=O)c2ccc(F)cc2)cc1 (configuration not stated)
  2.4 | 24% | -0.2% | 2.2 | 4 | -8 | -2.7%
Cc1ccc2c(COC(=O)c3ccc(NC(=O)CC#N)cc3)cc(=O)oc2c1C
  1.6 | 8% | 6.4% | -0.2 | -18 | -12 | 1.7%
CSc1ccc(CCNC(=O)Cn2ncn3c(cc4ccccc43)c2=O)cc1
  / | / | 20µM* | 0.0 | 30 | / | 1.0%
C=C(C)CN(Cc1ccccc1)C(=S)Nc1ccccc1
  1.7 | 11% | / | -0.6 | 17 | 21 | 1.5%
CC(=O)NCC(=O)N1CCCC(C(=O)c2ccc(-c3ccccc3)c(F)c2)C1 (configuration not stated)
  -4.0 | 7% | / | -0.2 | 30 | 7 | 1.0%
CCc1ccc(N2CCn3c2nc2c3c(=O)n(CCCc3ccccc3)c(=O)n2C)cc1
  / | / | -9.1% | -0.4 | -11 | / | 0.2%
O=C(NCc1ccc(Cl)cc1)c1ccc(Cl)cc1[N+](=O)[O-]
  0.7 | 9% | 0.0% | -1.3 | -1 | -5 | 7.4%
CC1CN(CCC(=O)Nc2ccc3c(c2)OCO3)CC(C)O1 (configuration not stated)
  3.1 | 11% | 0.7% | 0.8 | -14 | -14 | -1.0%[38.3 µM]

# 3 of the entries above in order of their number in TRPML1 inh, rising:
structure,Menin MLL FP FL,Sfp PPTase inh,TRPML1 inh,PINK1 modulator
COC(=O)Nc1nc2ccc(-c3n[nH]c(=O)c4ccccc34)cc2[nH]1,0.2,?,-18,15%
Clc1ccc2nc(CSc3nnc(-c4c[nH]c5ccccc45)o3)cn2c1,/,/,-8,16%
CC(=O)Nc1nc(N)n(-c2ccccc2)n1,-1.5,12%,0,4.8%

# Additional compounds follow:
# The line under a structure holds: Menin MLL FP FL | Sfp PPTase inh | ClpP mod | TRPML1 ag | TRPML1 inh | TRPV1 PAM | PINK1 modulator
COc1ccc(CNC(=O)COC(=O)CC2CCCC2)cc1
  -2.2 | -10% | / | -0.2 | 9 | 0 | 4.4%
C=CCOC(=O)/C(=C\c1ccc(OC)cc1)NC(=O)c1ccco1
  7.6 | 9% | 1.7% | 0.1 | 5 | -6 | -5.0%
C[C@H]1CN([C@@H](C)CO)S(=O)(=O)c2ccc(Br)cc2O[C@H]1CN(C)C(=O)C1CCC1
  / | / | -3.6% | 0.6 | 7 | / | -1.0%
CCc1nnc(NC(=O)NCN2C(=O)C3C4C=CC(C4)C3C2=O)s1 (configuration not stated)
  -4.6 | 19% | -1.4% | -0.5 | 37 | -5 | 2.1%
COc1ccc(CCNS(=O)(=O)c2ccc3c(c2)c(=O)n(C)c(=O)n3C)cc1OC
  / | / | -0.7% | 0.1 | -2 | / | 0.1%
COc1cc(OC)c(NC(=O)C2=C(C)C(=O)OC23CCCCCC3)cc1Cl
  / | / | 1.3% | 1.0 | 0 | / | 2.6%
O=C(Nc1cccc(OCc2cc(=O)n3ccccc3n2)c1)c1ccccc1Br
  / | / | 4.3% | 1.0 | 22 | / | -4.3%
COCCOC(=O)C1=C(C)N(Cc2ccccc2)C(=O)NC1c1ccc(OC)cc1 (configuration not stated)
  0.2 | 10% | -6.0% | -0.3 | -13 | 5 | 1.8%
CC1=C(C(=O)N2CCc3ccccc32)C2(CCC(C)CC2)OC1=O (configuration not stated)
  3.4 | 10% | 1.7% | 1.3 | -13 | 0 | /
COc1cccc(CNC(=O)Cc2ccc(NC3=NC4CS(=O)(=O)CC4S3)cc2)c1 (configuration not stated)
  -2.9 | 17% | 1.2% | -0.7 | 9 | -19 | 0.8%
O=C(CCCn1c(=O)[nH]c2cc(Cl)ccc2c1=O)NCCN1CCN(c2ccccc2)CC1
  2.1 | 3% | -0.7% | 0.0 | 4 | -1 | 3.4%
Cc1ccc2c(Cl)cc(Cl)c(OCc3c(C)noc3C)c2n1
  -0.6 | 8% | -3.5% | 1.4 | 8 | -4 | 15%
C[C@@H]1CN([C@@H](C)CO)C(=O)c2cccc(NC(=O)C3CCOCC3)c2O[C@H]1CN(C)S(=O)(=O)c1ccc(Cl)cc1
  / | / | 0.2% | 0.0 | 7 | / | 1.9%
CN1/C(=C\C(=O)c2cccnc2)Sc2ccccc21
  -4.0 | 22µM* | / | 0.5 | -3 | 0 | 0.1%
CC(=O)NC(NC(=S)N1CCCCCC1)C(Cl)(Cl)Cl (configuration not stated)
  -9.2 | 24% | / | -0.5 | -26 | -12 | 5.2%
C[C@H](NC(=O)c1ccccc1Cl)C(=O)Nc1ccccc1F
  5.4 | 6% | / | -0.7 | 17 | 6 | -0.1%
Cc1ccc(N=Cc2ccc(O)cc2O)cc1F
  3.6 | -28% | 0.0% | 0.2 | 12 | 2 | 1.4%
CCOc1cc(-c2nnn(CC(=O)N3CCCCC3)n2)ccc1OC
  -7.5 | 26% | 0.9% | / | / | 3 | -0.1%
COCCCNC(=O)CSC1=Nc2ccccc2C2=NC(Cc3c[nH]c4ccccc34)C(=O)N12 (configuration not stated)
  -0.2 | 15% | -22% | 0.2 | 12 | 11 | -0.7%
O=C(COc1ccc(Cl)cc1)NCCCNC(=O)c1cnccn1
  4.9 | 6% | / | 0.6 | 29 | -3 | -0.2%
CCCCOc1ccc(/C=C/C(=O)NCCc2nc3ccccc3[nH]2)cc1
  5.7 | 6% | -0.6% | 0.5 | 20 | -7 | 13%[38.3 µM]
CN(CCC(=O)Nc1ccc2c(c1)OCO2)Cc1ccccc1
  0.1 | 8% | 0.1% | -0.5 | -10 | -12 | -5.8%[38.3 µM]
CN(CC(=O)Nc1ccc(Cl)cc1)C(=O)Cc1c(F)cccc1Cl
  / | 9% | 0.0% | -0.3 | 11 | 0 | -0.4%
CCOc1ccccc1NC(=O)NC1CCN(CC(=O)Nc2ccc3c(c2)OCCO3)CC1
  1.3 | 13% | 0.0% | 0.1 | -7 | 4 | 39%[38.3 µM]
Cc1cc(F)ccc1NS(=O)(=O)c1cccc2nsnc12
  -0.2 | 17% | 1.0% | 0.1 | 2 | 20 | 0.6%
CCCCCCOc1ccc(N2C(=O)CC(N3CCN(CCN=CC4C(=O)CC(C)(C)CC4=O)CC3)C2=O)cc1 (configuration not stated)
  1.3 | 7% | / | -0.9 | 2 | 12 | 4.8%
CCN(CC)CCNC(=O)c1sc2nc3n(c(=O)c2c1C)CCCCC3
  / | / | 0.8% | 0.0 | -6 | / | 0.2%
CC(c1nccs1)N(C)C(=O)CCc1nnc(CCc2ccccc2)o1 (configuration not stated)
  -3.9 | 16% | / | -0.5 | 5 | -2 | 2.8%
Cc1nnc(SCCN2CCOCC2)c2nn(-c3ccccc3F)c(C)c12
  18 | ? | 14µM* | -1.1 | -1 | -11 | 1.3%

# Single values from the entries so far:
# Entry of `CCOc1ccccc1NC(=O)NC1CCN(CC(=O)Nc2ccc3c(c2)OCCO3)CC1` under Menin MLL FP FL: 1.3
# Entry of `C[C@H](NC(=O)c1ccccc1Cl)C(=O)Nc1ccccc1F` under TRPML1 inh: 17

# High-throughput results: PubChem, National Center for Advancing Translational Sciences (NCATS)
